Sa helicase inh: S. aureus DNA helicase inhibition; 120,000 tested, 0.05% active; purified S. aureus helicase, fluorescence unwinding assay; about half of the hits fall short of the stated cut; AID 485395; inhibition, %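 (tested at about 80 µM)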;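 active = both duplicates at 50% or more, or one of them with a favoured structure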;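 also: 0% = mean of negative control wells and 100% = mean of positive control wells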
MgrA-DNA mod: alters Staphylococcus aureus MgrA binding to DNA; fluorescence polarization; inhibition, %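 (about 10 µg/mL by stock and volumes)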; 84,000 tested, 0.13% active;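 active = above 50% in either of two replicates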;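 also: 0% = protein plus DNA without compound and 100% = DNA alone without protein; higher means less MgrA bound to DNA so lower polarization; one replicate is shown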
The depositor's hits bear a star; . = not tested or not shown. An excerpt; rates above refer to the full screens.

SMILES	Sa helicase inh	MgrA-DNA mod
CC(C)c1c(C#N)c(N)nc(SCC(=O)c2ccc(Cl)c(Cl)c2)c1C#N	8	1.7
CCn1cc(C(=O)OCc2ccccc2)c(=O)c2ccc(C)nc21	9	0.2
CCCCn1c(CCNC(=O)c2ccco2)nc2ccccc21	-14	0.5
Cc1ccc(Nc2nc(COC(=O)/C=C/c3ccc(C)o3)cs2)cc1	-19	.
O=C(Nc1cc(=O)[nH]c(=O)[nH]1)c1cc(Br)ccc1Cl	-13	.
COc1ccc(C(=O)N2CCN(C34CC5CC(CC(C5)C3)C4)CC2)cc1OC	9	-2.5
Cc1ccc(NC(=O)NCCCN2CCCC2=O)cc1	24	0.4
COc1cccc(C=Nc2cc(C(F)(F)F)cc(C(F)(F)F)c2)c1O	.	-1.8
COc1ccc(OC(=O)c2csc(Cc3c(Cl)cccc3Cl)n2)cc1	.	-2.8
Cc1ccc(/C=C/C(=O)NCCCn2ccnc2)cc1	16	-0.7
Cc1cccc(N2CN(CCc3ccccc3)CNC2=S)c1C	-15	.
Cc1ccc(-c2noc(-c3cc(C(C)C)[nH]n3)n2)cc1	6	.
CCN(c1ccccc1)c1cc2ccccc2c(=O)[nH]1	12	.
CCOC(=O)N1CCC(NC(=O)CCS(=O)(=O)c2ccc3c(c2)CCN3C(=O)CC)CC1	-9	.
Cc1cc(C)n(CCC(=O)NC2CCCc3ccccc32)n1 (stereo unspecified)	2	.
CCN(CC)CCC1S(=O)(=O)CC(c2ccccc2)CS1(=O)=O (stereo unspecified)	.	-2.4
CC(=O)Oc1c(C(C)(C)C)ccc(C(C)(C)C)c1O	.	1.4
OCC[N+]12CCCCC1[C@H](CO)CCC2 (stereo partly specified)	35	.
Cc1ccc(CC(=O)N2CCN(S(C)(=O)=O)CC2)cc1	16	8.9
c1ccc2c(c1)oc1c(N3CCCCC3)ncnc12	10	-2.8
C=CCOC1C=CC=CC1C(c1c(C)[nH][nH]c1=O)c1c(C)[nH][nH]c1=O (stereo unspecified)	6	.
O=C(O)c1ccc2[nH]c3c(c2c1)CCCC3	-18	1.0
COC(=O)c1c(C)oc(C)c1S(=O)(=O)N1CCCc2ccccc21	.	-0.3
O=C(O)CCC(=O)Nc1ccc2c(c1)OCCCO2	.	-2.9
CCOc1ccc(C(=O)Nc2ccc(-c3nc4ccccc4o3)cc2)cc1Br	-33	.
O=C1c2ccccc2C(=O)N1CC12CC3CC(CC(C3)C1)C2	10	0.6
CCc1ccc(C(=O)c2cnc3cc4c(cc3c2N2CCCC2)OCO4)cc1	-6	1.0
CCn1c(CCC(=O)NCc2ccc(C)cc2)nc2cc(S(=O)(=O)N(C)C)ccc21	12	.
CC(NC(=O)C1C(=O)NC2(C)CC1c1ccccc1O2)c1ccccc1 (stereo unspecified)	16	-0.5
Cc1cc(OCC(=O)c2ccc(F)cc2)ccc1N1C(=O)CCC1=O	17	-2.6

Five compounds from above, sorted by the number in Sa helicase inh, largest number first:
structure | Sa helicase inh
Cc1cc(OCC(=O)c2ccc(F)cc2)ccc1N1C(=O)CCC1=O | 17
CC(NC(=O)C1C(=O)NC2(C)CC1c1ccccc1O2)c1ccccc1 (stereo unspecified) | 16
CCn1c(CCC(=O)NCc2ccc(C)cc2)nc2cc(S(=O)(=O)N(C)C)ccc21 | 12
C=CCOC1C=CC=CC1C(c1c(C)[nH][nH]c1=O)c1c(C)[nH][nH]c1=O (stereo unspecified) | 6
CCc1ccc(C(=O)c2cnc3cc4c(cc3c2N2CCCC2)OCO4)cc1 | -6

The list goes on:
SMILES	Sa helicase inh	MgrA-DNA mod
Cc1ccc(-c2[nH]nc3nc(C(=O)O)cc(-c4cccc5ccccc45)c23)cc1	-2	-2.0
COC(=O)CSC1=C(C#N)C(c2cccc(Cl)c2Cl)C2=C(CCCC2=O)N1 (stereo unspecified)	6	4.2
O=C(C1CCC(CNS(=O)(=O)c2ccccc2)CC1)N1CCCCC1 (stereo unspecified)	9	-0.7
Cc1ccc(Nc2ncnc3c2cnn3-c2ccccc2)cc1	1	.
CCOC(=O)c1ccc(NCc2cn[nH]c2-c2ccc(C)cc2)cc1	2	.
NC(=O)COc1ccc(/C=C2/NC(=O)NC2=O)cc1	25	.
O=C1c2oc3ccccc3c(=O)c2C(c2cccc(Cl)c2)N1CCO (stereo unspecified)	2	.
CCCCC(=O)NCc1ccc2[nH]c(C)cc2c1	9	.
CN1CCN(c2c3c(nc4ccccc24)-c2ccccc2CC3)CC1	.	-0.6
Cc1ccc(Oc2ccc(C(F)(F)F)cn2)c2c1CCC2	.	0.1
NNC(=O)CN1CCCCCC1=O	1	.
NCCCNC(=O)c1ccco1	-7	1.0
CCCN(Cc1cccs1)C(=O)NC12CC3CC(CC(C3)C1)C2	9	1.1
CCCCCCNc1nc(NCc2ccco2)nc(OCC)n1	-27	.
CC(C)(C)c1csc(-c2ccc(OC(F)(F)F)cc2)n1	.	-2.3
NC(=S)Nc1nc2ccccc2s1	-9	.
CC1CN(C(=O)N2CCC(C(=O)N3CCN(c4ccccn4)CC3)CC2)c2cc(Cl)ccc2O1 (stereo unspecified)	7	.
O=C(CCCn1ncn2c(cc3occc32)c1=O)NCc1ccccc1	-15	.
CN(c1ccccc1)C(C(=O)NC1CCCC1)c1ccc(Cl)cc1 (stereo unspecified)	13	0.0
O=C(Cc1cccc2ccccc12)OCC(=O)c1ccc(Br)cc1	8	-0.8
NC(=O)c1nn(-c2ccccc2)c(=O)cc1O	10	.
Cn1c(=O)c2c(ncn2Cc2ccc(F)cc2)n(C)c1=O	7	.
O=C(OCc1nc2ccccc2s1)C1CCN(S(=O)(=O)c2ccccc2C(F)(F)F)CC1	-7	.
CC(Sc1nnc(-c2cccs2)n1C1CC1)C(=O)N1CCNC1=O (stereo unspecified)	7	.
Cc1cc2nn(-c3ccccc3)nc2cc1NC(=O)c1cccs1	19	-3.7
COc1ccc(Br)c(-c2nnc(-c3ccccc3NS(=O)(=O)c3ccc(Cl)cc3)o2)c1	.	3.5
Cc1cc(Cl)ccc1OCC1NCCS1 (stereo unspecified)	.	-0.3
COC(=O)c1ccc(C(=O)Nc2ccc3sccc3c2)cc1	5	.
Cc1nn(-c2ccccc2)c(Cl)c1C1N2CCCN1CC2 (stereo unspecified)	-14	2.1
O=C(Cc1ccsc1)OC(C(=O)c1ccccc1)c1ccccc1 (stereo unspecified)	-18	-0.2
CCOC(=O)COc1ccc(C2=Nc3ccccc3NC(c3ccccc3)C2)cc1 (stereo unspecified)	.	-1.6
Cc1cc(NC(=O)CSc2nc3ccccc3c(=O)n2CCO)n(-c2ccccc2)n1	-12	.
CCC1(C)OC(c2ccc(Br)cc2)=Nc2ccccc21 (stereo unspecified)	-1	-1.4
Oc1c(C(c2ccc(F)cc2)N2CCCC2)ccc2cccnc12 (stereo unspecified)	-9	.
Cc1ccc(C)c(NC(=O)CSc2c(C)n[nH]c2C)c1	7	.
O=c1c(Cc2ccccc2)c(O)c2cccc3c2n1CCC3	.	0.0
Cc1nc2cc(NC(=O)CCN3C(=O)NC4(CCCC4)C3=O)ccc2n1-c1ccccc1	3	.
CC12C=CC(C)(O1)C1C(=O)N(c3cccc4ccccc34)C(=O)C12 (stereo unspecified)	.	-2.7
Cc1cn[nH]c1C(F)(F)F	.	-1.8
Cc1nnc(Sc2cc(C(=O)NCCc3ccccc3)c3ccccc3n2)s1	9	7.6
COc1ccc(C2N(C)c3ccccc3N2C)cc1	-32	.
O=C(OCC(=O)N1CCCC1=O)C(c1ccccc1)c1ccccc1	12	.
CCOC(=O)Cn1nc(-c2ccccc2)c2ccccc2c1=O	1	.
CC(C)(C)c1ccc(-c2[nH]nc(NS(=O)(=O)c3ccccc3)c2Br)cc1	.	-1.6
O=C(CC(F)(F)F)Nc1ccccn1	8	-0.8
Cc1nnsc1C(=O)Nc1cccc(C(F)(F)F)c1	-2	.
CCN1CCN(C(=O)/C(C#N)=c2\s/c(=C\c3ccco3)c(=O)n2-c2ccc(Cl)cc2)CC1	26	.
CN1CCN(Cc2c3ccccc3cc3ccccc23)CC1	-9	2.3
O=C1CC2CS(=O)(=O)CC2N1Cc1cccnc1 (stereo unspecified)	6	.
Cn1c2c(c3ccccc31)/C(=N/OC(=O)c1cccc3ccccc13)CCC2	.	1.9

(listing goes on)
SMILES	Sa helicase inh	MgrA-DNA mod
CN(C)C(=O)Nc1cccc(O)c1	-9	.
Cc1cc(C)nc(NC(=O)CSC(=S)N2CCOCC2)n1	0	0.9
O=C(O)CCC(=O)N1CC=C(c2ccccc2)CC1	8	.
Cc1ccc(-c2cn3ccsc3n2)cc1	8	.
Cc1ccc(NC(=O)CSc2nnc3ccccn23)cc1	-2	1.2
Oc1cccc(N=Cc2c[nH]c3ccc(Br)cc23)c1	-17	0.4
C/C(=N\Nc1ccc([N+](=O)[O-])cc1[N+](=O)[O-])c1ccccc1Cl	.	-1.3
COCC(C)N=Cc1c(O)[nH]c2ccccc12 (stereo unspecified)	8	-0.5
Cc1nnc(SCc2ccc(C#N)cc2)n1C1CC1	1	.
O=C1Oc2ccc3ccccc3c2C1(O)C(F)(F)F (stereo unspecified)	17	.
O=C1CCCN1C(=O)CSc1n[nH]c(=O)n1CCc1ccccc1	-13	.
CCn1ncc(Cl)c(Cl)c1=O	2	-2.0
CC(C)c1ccc(NC(=O)C2CC(=O)N(c3ccccc3)C(=S)S2)cc1 (stereo unspecified)	0	.
O=C(CN(Cc1ccco1)S(=O)(=O)c1ccc(Cl)cc1)N1CCCc2ccccc21	-17	.
O=C(COC(=O)c1cc(=O)[nH]c(=O)[nH]1)Nc1ccccc1	9	.
CC1CC(NC(=S)NCc2csc3ccccc23)CC(C)(C)C1 (stereo unspecified)	.	0.5
O=C(O)c1ccc2c(c1)C(=O)N(c1ccccn1)C2=O	-10	.
Cc1ccc(Cc2nnc(C(=O)NCc3ccccc3)o2)cc1	10	-0.9
COC(=O)c1cc2ccccc2c(CN2C(=O)c3ccccc3C2=O)c1O	2	.
O=C1C(Cc2ccc(F)cc2)Sc2nc3ccccc3n21 (stereo unspecified)	9	-3.2

Individual results from the results shown:
`O=C1C(Cc2ccc(F)cc2)Sc2nc3ccccc3n21` (stereo unspecified) in MgrA-DNA mod has -3.2
`COC(=O)c1cc2ccccc2c(CN2C(=O)c3ccccc3C2=O)c1O` in Sa helicase inh has 2
`CCn1ncc(Cl)c(Cl)c1=O` in Sa helicase inh has 2
`CC1CC(NC(=S)NCc2csc3ccccc23)CC(C)(C)C1` (stereo unspecified) in MgrA-DNA mod has 0.5
`O=C(COC(=O)c1cc(=O)[nH]c(=O)[nH]1)Nc1ccccc1` in Sa helicase inh has 9
`Cc1ccc(Cc2nnc(C(=O)NCc3ccccc3)o2)cc1` in Sa helicase inh has 10

Next results
SMILES	Sa helicase inh	MgrA-DNA mod
COC(=O)c1ccc(N=Cc2cccs2)cc1	9	3.0
c1ccc(-c2nnc3n2C2(CCCC2)Cc2ccccc2-3)cc1	4	1.6
Cc1ccc(NC(=O)CNC(=O)c2ccc(Br)o2)c(C)c1	-16	3.8
O=C(CSc1ncccn1)NC(=O)NCc1ccco1	-6	.
CCCNC(=O)c1ccc2c(c1)ncn2-c1cc(OC)ccc1OC	-2	1.1
COC(=O)c1cnn(-c2ccccc2)c1-n1cccc1	-15	.
Cc1cc(C)cc(Nc2cc(=O)oc3ccccc23)c1	2	2.2
CC(C)N(C(=S)NCC1CCCO1)c1ccccc1 (stereo unspecified)	17	.
CCN1CCN(C(=O)/C=C/c2cccs2)CC1	-21	-0.3
O=C(O)CCc1nnc2ccc(Cl)nn12	13	0.7

One compound at a time, as listed above. Order of screens: Sa helicase inh	MgrA-DNA mod
CCN1CCN(C(=O)/C=C/c2cccs2)CC1 in the list: -21	-0.3
CCCNC(=O)c1ccc2c(c1)ncn2-c1cc(OC)ccc1OC in the list: -2	1.1
Cc1ccc(NC(=O)CNC(=O)c2ccc(Br)o2)c(C)c1 in the list: -16	3.8
O=C(CSc1ncccn1)NC(=O)NCc1ccco1 in the list: -6	.

(list continues)
SMILES	Sa helicase inh	MgrA-DNA mod
CC1CCCN(C(=O)COC(=O)c2ccccc2O)C1 (stereo unspecified)	-5	-1.4
COC(=O)CN1C(=O)CS/C1=C\C#N	-11	.
CC1CCC(C(=O)NC(Cc2c[nH]c3ccccc23)C(=O)NCc2cccnc2)CC1 (stereo unspecified)	9	-0.6
Cc1[nH]nc2nc(SCC(=O)NCCc3ccccc3)n(-c3ccccc3Cl)c(=N)c12	6	3.7
C=CCN(CC=C)S(=O)(=O)c1ccc(C(=O)Nc2ccccc2-c2nc3ccccc3[nH]2)cc1	-9	2.8
COc1ccc(NC(=S)N2CCCC(c3ccccc3)=N2)cc1	.	-0.2
O=[N+]([O-])c1cc(C(F)(F)F)ccc1NNc1ccc(C(F)(F)F)cc1[N+](=O)[O-]	.	-2.0
Cc1nc(/N=C(/N)NC(=O)Cc2ccccc2)nc2ccccc12	-34	.
N/C(CS(=O)(=O)c1ccccc1)=N\O	.	-0.1
COc1ccccc1CN(C)C(=O)C1COc2ccccc2O1 (stereo unspecified)	11	.
CCN(CC)c1ccc(/C=C2\C(=O)NC(=S)N(c3ccc(F)cc3)C2=O)c(O)c1	.	-0.3
COc1cc(/C=C2\C(=O)N(c3ccc(Cl)c(C(=O)O)c3)N=C2C)cc(OC)c1OC	.	0.4
CC1(/[N+]([O-])=C/c2ccc(Br)cc2)CCCCC1=O (stereo unspecified)	-23	.
CCC(=O)NCc1nc(-c2ccccc2)no1	-9	.
CCN(C(=O)CCn1c(=O)oc2ccccc21)c1ccccc1	-7	.
CCCCc1ccc(-n2nc3cc(C)c(NC(=S)NC(=O)c4ccco4)cc3n2)cc1	3	1.4
CCCCn1c2ccccc2c2nnc(SCC(=O)N=C3NC(=O)CS3)nc21	8	5.0
CSC1=NCCN1C(=O)c1ccc(S(=O)(=O)N2CCCC2)cc1	1	.
COCCNC(=O)c1ccc(N2CC3CC(C2)c2cccc(=O)n2C3)c(NC(=O)c2ccc(F)cc2)c1 (stereo unspecified)	4	.
